Source: PubChem BioAssay (National Center for Advancing Translational Sciences (NCATS))
Vaccinia mCherry: vaccinia inhibition (mCherry reporter) | Vaccinia virus mCherry reporter infection, fluorescence; about a quarter of the inactives have no number | Potency, µM (series often up to 36.5 µM), for the others: at the highest dose activity change, negative = inhibition, hits mostly inhibitors | 0.63% of 310,000 active; active = well fitted inhibition curve with a large enough effect; inconclusive = small, poorly fitted or top-dose-only effect; inactive = no such curve, though single readings can be large or run the other way; tested in A549 cells; further: nearly all actives have a fitted effect of over 35% in size; inactives centre near -10
VACV Venus inh: vaccinia inhibition (Venus reporter); 0.46% of 330,000 active; Potency, µM (series often up to 36.5 µM), for the others: top-dose activity change, negative = inhibition, actives largely listed as inhibitors; Vaccinia virus Venus reporter expression, fluorescence; active means well fitted inhibition curve with a large enough effect; inconclusive means small, poorly fitted or top-dose-only effect; inactive means no such curve, though single readings can be large or run the other way; tested in A549 cells; further: nearly all actives have a fitted effect of over 30% in size; inactives centre near -10
The depositor's hits bear a star; i = inactive; ? = inconclusive; . = not tested or not shown; [ ] = another dose, or the depositor's remark. On the % scale 0 is the no-effect control and ±100 the full control effect; potency means the concentration at half of the fitted maximal effect.

Order of results: Vaccinia mCherry | VACV Venus inh
CCOc1ccc(-n2ccnc2SCC(=O)Nc2ccc3c(c2)OCO3)cc1
  i | -14%
C#CCOCCOCCOCCNc1nc(N2CCOCC2)nc(N2CCN(C(=O)[C@H](Cc3ccc(O)cc3)n3cc([C@@H](N)C(C)CC)nn3)CC2)n1 (stereo partly drawn)
  i | -14%
Cc1ccc2[nH]c(=O)c(CN(C(=O)c3cccs3)c3ccccc3)cc2c1
  -9% | -10%
COc1ccc(C2=NOC(Cn3nc(C(=O)NCC4CC4)cc3-c3ccccc3)C2)cc1 (stereo not drawn)
  i | ?
Cn1cccc1Cc1nnc(SCC(N)=O)n1CCc1ccccc1
  1% | 8%
Cc1c(NC(=S)NC(=O)c2cc3ccccc3o2)c(=O)n(-c2ccccc2)n1C
  -9% | -10%
C=C(CN(C)C)C(=O)c1ccc(OC2OC(COC(C)=O)C(OC(C)=O)C(OC(C)=O)C2OC(C)=O)cc1 (stereo not drawn)
  ? | ?
COc1ccc(Cl)cc1C(=O)N1CCN=C1SC
  i | -10%
COC(=O)Cc1c(O)ccn(Cc2ccc(F)cc2)c1=O
  . | -18%
CC[C@@]12C(=O)N(c3cccc(F)c3)C(=O)N1[C@H](c1ccc(OC)cc1)[C@@H]1C(=O)N(C(C)(C)C)C(=O)[C@@H]12
  -29% | 0%
CC1CCC2(CC1)N=C(c1ccccc1)C(=O)N2CC(=O)Nc1ccc(F)c(Cl)c1 (stereo not drawn)
  -3% | ?
O=C(Cn1cc(S(=O)(=O)Cc2cccc(Cl)c2)c2ccccc21)Nc1ccccc1C(F)(F)F
  i | -18%
CCOC(=O)N(C)c1c(CC)nc2c(OCC(=O)C(C)(C)C)cccn12
  i | -6%
C/C(=C\c1ccccc1)CN1CCC(C(=O)N2CCC(C)CC2)CC1
  -16% | -22%
Cc1ccccc1OCC(=O)NCC(c1cccs1)N1CCOCC1 (stereo not drawn)
  -3% | -10%
COC(=O)c1cc(S(=O)(=O)NCCc2ccc(Cl)cc2)c[nH]1
  ? | -25%
O=C(Cc1ccc(S(=O)(=O)N2CCOCC2)s1)Nc1ccc(N2CCOCC2)cc1
  -1% | -1%
CCOC(=O)c1nn(-c2cccc(Cl)c2)c2nc(Nc3ccccc3)cc(=O)n12
  -5% | -6%
CN(C)C(Cc1ccc(C#N)cc1)C(=O)c1ccccc1 (stereo not drawn)
  i | 6%
CCC(=O)N1CCc2cc(S(=O)(=O)NC(Cc3ccccc3)C(=O)Nc3nccs3)ccc21 (stereo not drawn)
  i | -14%
CN1CCN(C(=O)/C=C\C(=O)O)CC1
  -10% | -1%
O=C(Nc1ccccc1-c1ccccc1)C1CCCCC1
  -30% | -9%
CNC(=O)NNC(=O)c1csc(-c2ccc(C(F)(F)F)cc2Cl)n1
  ? | -7%
CC1(C(=O)NS(=O)(=O)Cc2ccccc2)CCN1C(=O)CCc1ccccc1 (stereo not drawn)
  -2% | 7%
CCOC(=O)C1=C(COC(=O)CSc2ccc(C)cc2C)NC(=O)NC1C (stereo not drawn)
  -6% | -5%
CC(C)Oc1ccc(C(=O)Nc2ccc(N(C)C)cc2)cc1
  -1% | -5%
CCOc1ccccc1-n1c(O)c(C=NCc2ccc3c(c2)OCO3)c(=O)[nH]c1=O
  -16% | -17%
Cc1cc(N2CCN(c3nnnn3-c3ccccc3)CC2)n2ncnc2n1
  -27% | -25%
CCOC(=O)CN(C(=O)Cn1nnc2ccccc21)C(C(=O)NCCOC)c1ccccc1C (stereo not drawn)
  -8% | -2%
COc1ccc(Cl)cc1NC(=O)Cn1ccn(-c2cc(C)cc(C)c2)c(=O)c1=O
  -27% | -27%
CC(C)(C)c1ccc(C(=O)Nc2ccccc2C(=O)OCc2cc(=O)n3ccsc3n2)cc1
  i | -3%
COc1nnc(-c2ccc(N3CCOCC3)c(NC(=O)c3ccc(C)cc3)c2)c2ccccc12
  ? | -17%
CCN(CC(=O)Nc1c(F)cccc1F)C(=O)C1CCN(S(=O)(=O)c2ccc(C)cc2C)CC1
  -9% | -6%
COc1cc2c(c3oc(-c4ccccc4)cc(=O)c13)C=CC(C)(C)O2
  -30% | -25%
CCOC(=O)N1CCN(C(=O)c2cc3ccccc3o2)CC1
  -14% | -5%
COc1cccc(CCNC(=O)c2cnc3sc(N4CCCCCC4)nn3c2=O)c1
  -24% | -20%
COc1ccc(CC(N)c2csc(NC(=O)Nc3ccc(C(C)C)cc3)n2)cc1 (stereo not drawn)
  ? | ?
CCOC(=O)N1CCN(C(=O)C(=O)NNC(=O)COc2ccc(Cl)cc2)CC1
  -23% | 16%
Cc1cc(C)n(-c2ccc(NC(=O)C3CCCCN3C(=O)c3cc(C)oc3C)cc2)n1 (stereo not drawn)
  -20%[7.34 µM] | -17%[7.34 µM]
COc1ccc(C(=O)Nc2ccccc2-c2nc3ccccc3s2)cc1OC
  -24% | -17%
COc1cc(-c2cc(C(=O)OCC(=O)Nc3ccc4c(c3)OCO4)c3ccccc3n2)cc(OC)c1OC
  i | -6%
NC(=O)[C@@H]1CCCN1Cc1c(C(=O)N2CCc3ccccc3C2)nc2ccc(Cl)cn12
  -5% | -6%
Cc1sc2nc(CSCC(=O)NC(C)(C)C)[nH]c(=O)c2c1C
  i | -13%
CCC(=O)Nc1ccc2nc(SCC(=O)N3CCOCC3)sc2c1
  i | -1%
CC1C(=O)N(Cc2cn(CC3CCCCC3)nn2)CCS(=O)(=O)N1Cc1ccc(-c2ccccc2)cc1 (stereo not drawn)
  ? | ?
CNCC(O)CN(c1ccccc1)c1ccccc1 (stereo not drawn)
  -22% | -9%
Cc1cc(NC(=O)c2ccco2)cc(-c2nc3ccccc3o2)c1O
  -8% | 1%
O=C(NCCOc1ccccc1)C1CCC(=O)N(CCc2ccc(Cl)cc2)C1 (stereo not drawn)
  -27% | -20%
Cc1nc2nc(NC(=O)c3ccc(F)cc3)[nH]n2c(=O)c1Cc1ccccc1
  i | -10%
COc1cc([N+](=O)[O-])ccc1Nc1nc(C)cc(C)n1
  -17% | -2%
c1ccc(CN2Cc3ccccc3-n3nncc3C2)cc1
  -13% | -17%
Cc1sc2ncnc(N3CCN(Cc4ccccc4)CC3)c2c1-c1ccc(F)cc1
  -9% | 6%
COc1cccc(OC)c1C(=O)NC(=S)Nc1cc(-c2nc3ccccc3[nH]2)ccc1Cl
  -14% | -25%
Cc1c(NC(=O)C(=O)/C=C(\O)c2ccc(Cl)cc2)c(=O)n(-c2ccccc2)n1C
  -17% | -10%
CC(=O)Nc1ccc(CN(C)c2c(C)nc3ccc(C(=O)N4CCN(C(=O)c5ccco5)CC4)cn23)cc1
  i | 9%
O=C(Nc1cccc(S(=O)(=O)N2CCOCC2)c1)c1cn(-c2ccccc2)nc1-c1ccc(F)cc1
  -7% | 3%
O=C(O)Cn1cc(/C=C2/SC(=O)N(CC(=O)N3CCCCCC3)C2=O)c2ccccc21
  -11% | -17%
COc1ccc(NC(=O)c2ccc3c(c2)n(C)c(=O)n3C)cc1
  -24% | -6%
CCN(CC)CCNC(=O)c1cc2c(=O)n(C)c3cc(Cl)ccc3c2s1
  -4% | -11%
CCOC(=O)NNc1ccccc1
  -24% | 3%

The last three compounds of the part before come first, to join the parts.
Order of results: Vaccinia mCherry | VACV Venus inh
COc1ccc(NC(=O)c2ccc3c(c2)n(C)c(=O)n3C)cc1
  -24% | -6%
CCN(CC)CCNC(=O)c1cc2c(=O)n(C)c3cc(Cl)ccc3c2s1
  -4% | -11%
CCOC(=O)NNc1ccccc1
  -24% | 3%
O=C(Nc1ccc(NC(=O)C2CC2)nc1)c1ccncc1
  -10% | -6%
COC(=O)C1=C(c2ccc(C(C)=O)cc2)C[C@@H]2CC[C@H]1N2C(=O)N1CCC(O)(c2ccc(Cl)cc2)CC1
  -11% | -24%
Cc1cc(C)c(S(=O)(=O)c2ccccc2)c(=O)[nH]1
  i | -13%
Oc1ccc(-c2cnc3c(Nc4cccc(OC(F)(F)C(F)F)c4)nccn23)cc1
  -2% | -12%
O=c1oc(-c2cccc(Cl)c2)nc2c1cnn2-c1ccccc1
  ? | -6%
CC(C(=O)Nc1ccc(S(N)(=O)=O)cc1)N1CCc2ccccc21 (stereo not drawn)
  -17% | -6%
O=C(NCc1ccccn1)C1CCCN(S(=O)(=O)c2cc(Cl)ccc2Cl)C1 (stereo not drawn)
  -21% | -17%
O=C(Nc1cccc(C(F)(F)F)c1)c1cnccn1
  -2% | -5%
C#CCOc1ccc(/C=C2/C(=O)ON=C2C)cc1Cl
  i | -3%
CCOC(=O)NN1C(=O)c2ccccc2NC1c1ccccc1O (stereo not drawn)
  -8% | -3%
CC(=O)Nc1ccc(NC(=O)C(C)Sc2nc3ccccc3c(=O)n2Cc2ccco2)cc1 (stereo not drawn)
  i | -8%
CC1=C(C(=O)N2CCOCC2)CC(CC(=O)NCCCN(C)C)C(=O)N1CCC1=CCCCC1 (stereo not drawn)
  -6% | -5%
O=C1CC(N2CCN(c3ccc(F)cc3)CC2)C(=O)N1Cc1ccccc1 (stereo not drawn)
  -7% | -8%
CCn1c(=NC(=O)c2ccc(N3C(=O)CCC3=O)cc2)sc2c(OC)ccc(OC)c21
  -7% | -26%
COc1cc(CNc2ccc(O)cc2)cc(Br)c1OCc1ccccc1
  -11% | -18%
COc1ccc2c(c1)c1nnc(SCC(=O)NC3CC3)nc1n2C
  -28% | -23%
CC(=O)Nc1cccc(NC(=O)C(F)(F)F)c1
  i | -20%
Cc1ccc(S(=O)(=O)NN=C2CCC(C(C)(C)C)CC2)cc1[N+](=O)[O-] (stereo not drawn)
  -15% | -10%
CC(C)(C)NC(=O)C(=O)NN=C1CCCCCCC1
  -1% | -7%
CCOc1ccc(-c2nc(CN(Cc3ccccc3)C[C@@H]3CCC(=O)N3)c(C)o2)cc1
  i | -2%
NNC(=O)c1ccc2nc(-c3ccc(Br)cc3)cn2c1
  -28% | -20%
O=S(=O)(Nc1nc2ccccc2s1)c1ccc(Br)s1
  i | -7%
COc1ccc(C(=O)CSc2nccn2C)cc1
  -10% | 0%
CC1OC(OC2C(CO)OC(OC3C(CO)OC(O)C(O)C3O)C(O)C2O)C(O)C(O)C1NC1C=C(CO)C(O)C(O)C1O (stereo not drawn)
  -22% | -12%
COc1ccc([C@H]2CC(=O)C=C(c3ccc(Oc4ccccc4)cc3)C2)cc1OC
  ? | ?

Compounds above containing an aryl methoxy group, in the order listed:
Order of results: Vaccinia mCherry | VACV Venus inh
COc1ccc(C2=NOC(Cn3nc(C(=O)NCC4CC4)cc3-c3ccccc3)C2)cc1 (stereo not drawn)
  i | ?
COc1ccc(Cl)cc1C(=O)N1CCN=C1SC
  i | -10%
CC[C@@]12C(=O)N(c3cccc(F)c3)C(=O)N1[C@H](c1ccc(OC)cc1)[C@@H]1C(=O)N(C(C)(C)C)C(=O)[C@@H]12
  -29% | 0%
COc1ccc(Cl)cc1NC(=O)Cn1ccn(-c2cc(C)cc(C)c2)c(=O)c1=O
  -27% | -27%
COc1nnc(-c2ccc(N3CCOCC3)c(NC(=O)c3ccc(C)cc3)c2)c2ccccc12
  ? | -17%
COc1cc2c(c3oc(-c4ccccc4)cc(=O)c13)C=CC(C)(C)O2
  -30% | -25%
COc1cccc(CCNC(=O)c2cnc3sc(N4CCCCCC4)nn3c2=O)c1
  -24% | -20%
COc1ccc(CC(N)c2csc(NC(=O)Nc3ccc(C(C)C)cc3)n2)cc1 (stereo not drawn)
  ? | ?
COc1ccc(C(=O)Nc2ccccc2-c2nc3ccccc3s2)cc1OC
  -24% | -17%
COc1cc(-c2cc(C(=O)OCC(=O)Nc3ccc4c(c3)OCO4)c3ccccc3n2)cc(OC)c1OC
  i | -6%
COc1cc([N+](=O)[O-])ccc1Nc1nc(C)cc(C)n1
  -17% | -2%
COc1cccc(OC)c1C(=O)NC(=S)Nc1cc(-c2nc3ccccc3[nH]2)ccc1Cl
  -14% | -25%
COc1ccc(NC(=O)c2ccc3c(c2)n(C)c(=O)n3C)cc1
  -24% | -6%
CCn1c(=NC(=O)c2ccc(N3C(=O)CCC3=O)cc2)sc2c(OC)ccc(OC)c21
  -7% | -26%
COc1cc(CNc2ccc(O)cc2)cc(Br)c1OCc1ccccc1
  -11% | -18%
COc1ccc2c(c1)c1nnc(SCC(=O)NC3CC3)nc1n2C
  -28% | -23%
COc1ccc(C(=O)CSc2nccn2C)cc1
  -10% | 0%
COc1ccc([C@H]2CC(=O)C=C(c3ccc(Oc4ccccc4)cc3)C2)cc1OC
  ? | ?
